Insulin prom inh – TRM-6 insulin promoter activity inhibition; TRM-6 cells (human fetal islet line), insulin promoter-eGFP reporter, imaging; reporter expression induced with tamoxifen; actives 0.9% (n = 130,000); inhibition, % at 2 µM;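 active = inhibition above the mean plus 3 SD, with well images judged a real hit on visual review, cut at about 60% in these data, passing the limit was not always enough; inconclusive = inhibition over the cutoff but images rejected on review; inactive = inhibition not above the cutoff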
GALR2 ag – GALR2 (human) receptor agonism. activation, %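 (tested at 5 µM)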. actives 0.48% (n = 140,000). GALR2-expressing cells, agonist activation read-out. AID 803;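 active = above mean plus 3 SD of all compounds, about 5% in these data, not always enough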;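 note: 0% = vehicle buffer wells and 100% = reference agonist at full effect; tested in CHO reporter cells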
Target sequence (O43603 whole entry, looked up): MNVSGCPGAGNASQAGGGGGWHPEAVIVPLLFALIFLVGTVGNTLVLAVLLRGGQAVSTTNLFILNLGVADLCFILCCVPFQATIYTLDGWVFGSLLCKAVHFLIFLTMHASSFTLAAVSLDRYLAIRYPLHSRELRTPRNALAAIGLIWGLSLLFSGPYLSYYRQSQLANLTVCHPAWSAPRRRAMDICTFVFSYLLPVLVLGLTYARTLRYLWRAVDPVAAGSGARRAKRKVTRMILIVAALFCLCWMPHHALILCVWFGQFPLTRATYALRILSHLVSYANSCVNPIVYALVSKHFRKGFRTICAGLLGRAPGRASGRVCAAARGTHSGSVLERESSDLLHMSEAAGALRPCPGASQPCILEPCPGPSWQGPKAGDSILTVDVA
RGS16-Gao HTS – RGS16-Galphao interaction regulator (human); O15492+P09471; actives 0.38% (n = 220,000); bead-based flow cytometry RGS16-Galphao binding, fluorescence; actives lie on both sides; binding response (% of control), % at 10 µM; AID 1441;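 active = below 25% or above 175%, edge rows of some plates excepted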;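 note: Galphao activated by GDP with aluminum fluoride before binding; 100% = wells without compound and 0% = beads without RGS; some results beyond the cut were filed as inactive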
Target sequence (O15492 whole entry, looked up): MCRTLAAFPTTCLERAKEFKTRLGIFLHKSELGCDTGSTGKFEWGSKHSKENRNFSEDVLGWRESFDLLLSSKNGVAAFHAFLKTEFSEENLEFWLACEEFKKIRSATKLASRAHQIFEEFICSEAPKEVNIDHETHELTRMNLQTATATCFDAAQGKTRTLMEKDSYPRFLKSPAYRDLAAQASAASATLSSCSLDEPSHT
Target sequence (P09471 whole entry, looked up): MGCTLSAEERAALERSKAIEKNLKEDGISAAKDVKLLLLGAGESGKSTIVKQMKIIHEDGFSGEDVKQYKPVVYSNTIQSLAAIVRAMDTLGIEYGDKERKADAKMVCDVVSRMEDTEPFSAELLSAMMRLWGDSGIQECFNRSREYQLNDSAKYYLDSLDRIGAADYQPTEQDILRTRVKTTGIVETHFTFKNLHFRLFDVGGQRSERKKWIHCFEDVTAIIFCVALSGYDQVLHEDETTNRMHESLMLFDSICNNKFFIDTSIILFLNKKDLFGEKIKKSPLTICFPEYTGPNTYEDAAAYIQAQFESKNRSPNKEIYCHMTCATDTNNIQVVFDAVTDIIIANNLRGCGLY
PKD1 inh – PKD1 (human) kinase inhibition | Q15139 | PKD1 kinase fluorescence polarization assay | inhibition, %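 (about 10 µM by stock and volumes)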 | actives 0.056% (n = 200,000);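 active = inhibition of 50% or more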;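 note: controls were vehicle for no effect and a reference inhibitor for full effect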
HSV replic up – increases HSV replication in cells; actives 0.005% (n = 220,000); HSV replication augmentation in cells, fold increase; maximum fold increase; AID 1956;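 active = peak rise of 1.5-fold or more in the series; inconclusive = self-fluorescent or not available for retest; tested in PC3 cells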;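 note: first round at 10 µM; read as green reporter fluorescence; hits show the peak of a series up to 25 µM; 1 = signal of infected wells without compound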
Insulin prom inh cell count – also measured in Insulin prom inh; calls as there; normalized cell count, %; measured here: cell count, toxicity; reference of the scale not given here;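 cells exposed to compound for 48 h; stained nuclei by imaging scaled within each plate; lower means fewer cells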
HSV replic up primary fold – also measured in HSV replic up; calls as there; fold increase; compound at 10 µM; measured here: primary screen fold increase 10 uM; tested in PC3 cells;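 GFP signal in the first replicate; 1 = infected wells without compound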
* hit, by the source's call; i = inactive; ? = inconclusive; . = no result given.

SMILES	Insulin prom inh	Insulin prom inh cell count	GALR2 ag	RGS16-Gao HTS	PKD1 inh	HSV replic up	HSV replic up primary fold
O=C1CC(c2c[nH]c3ccccc23)C(=O)N1c1ccccc1 (configuration not stated)	68.8	172.3	-1.5	148.4	-1.3	i	1.12
Fc1ccc(NC(=S)NC2CC3CCCC(C2)N3Cc2cccs2)cc1 (configuration not stated)	16.7	81.2	.	122.4	-6.1	i	0.94
CN(C)CCCNC(=O)/C(=C\c1ccc(-c2cccc([N+](=O)[O-])c2)o1)NC(=O)c1ccccc1	.	.	.	108.8	1.0	i	0.8
O=C(COC(=O)CCCNC(=O)c1ccc(Cl)cc1)NC1CC1	.	.	-3.0	96.8	-16.2	i	0.95
Nc1nc(SCC(=O)Nc2ncc(C(F)(F)F)cc2Cl)n[nH]1	4.8	128.3	.	97.4	-2.7	i	1.05
Cc1ccc(N2CCN(/N=C/C3=C(N4CCOCC4)C(=C\c4ccccc4)/CC3)CC2)cc1	.	.	.	90.7	.	i	0.89
C=CCn1c(SCC(=O)NCc2ccco2)nc2sc(C)c(C)c2c1=O	-90.5	113.0	-0.5	105.4	-1.2	i	0.92
c1ccc(-c2ccccc2OCCCCN2CCCCC2)cc1	-42.9	83.7	-2.6	133.6	-0.5	i	0.86
CCc1nnc(NS(=O)(=O)c2ccc(NC(=O)c3cccc4ccccc34)cc2)s1	-84.6	82.4	.	117.0	12.1	.	.
O=C(CSc1nnc(-c2cccc(S(=O)(=O)N3CCCCC3)c2)o1)NCCC1=CCCCC1	-7.7	103.6	-0.5	102.5	-8.2	i	0.94
CCOC(=O)C(=CNc1ccc(S(N)(=O)=O)cc1)C(=O)OCC	.	.	.	101.0	.	i	0.81
CCCCCCC(=O)Nc1ccc(Br)cn1	.	.	.	106.7	.	i	0.91
CCOC(=O)COc1ccc(S(=O)(=O)N2CCN(C(=O)OCC)CC2)cc1	-330.0	64.4	-3.2	104.8	-10.7	i	0.99
CCOc1ccc2[nH]c(=O)c(CN(Cc3nnnn3Cc3ccco3)C3CCCCC3)cc2c1	.	.	-1.6	99.3	-0.1	i	1.14
c1ccc(CCn2nnnc2CN2CCCc3ccccc32)cc1	-7.7	115.8	-3.1	91.6	6.6	i	0.987
COc1cccc(OC(C)c2ccnc3nc(/N=C/N(C)C)nn23)c1 (configuration not stated)	-65.2	113.2	-2.6	143.2	-13.5	i	1.34
CCOc1cc(S(=O)(=O)NCc2cccs2)ccc1Cl	-15.2	102.7	-1.5	103.7	-11.4	i	0.85
O=[N+]([O-])c1cccc(-c2ccc(/C=N/NC(=S)Nc3ccccc3)o2)c1	.	.	-3.4	102.1	0.8	?	.
Cc1ccc(S(=O)(=O)N2CCN(CC(=O)N/N=C\c3ccc(O)c(O)c3)CC2)cc1	.	.	.	96.9	.	i	0.87
O=C(COC(=O)c1ccccn1)Nc1cccc(Cl)c1Cl	23.3	115.5	-0.8	99.2	-0.1	.	.
CCCCC(=O)NC(=S)NNS(=O)(=O)c1ccccc1	21.6	156.0	0.0	98.9	-7.6	i	0.85
CCOC(=O)c1ccc(Nc2cc(C)nc(N3CCOCC3)n2)cc1	30.3	105.4	-2.2	102.8	9.0	i	0.87
CC(C)CN(CCOc1cccc(N2C(=O)C3=C(CCCC3)C2=O)c1)CC(C)C	35.9	120.0	-0.9	104.4	-7.7	i	1.05
COc1ccc(-c2nn(C)c(=O)c3ccccc23)cc1NC(=O)Cn1nc(C)c2ccccc2c1=O	44.0	120.6	0.4	102.8	0.5	i	0.91
O=C(COC(=O)CCNS(=O)(=O)c1ccc2c(c1)OCCO2)NC1CCCc2ccccc21 (configuration not stated)	-9.1	99.3	-0.9	103.0	-10.7	i	0.96
CCN(CC)CC#CCC(O)(c1ccccc1)c1ccccc1	-114.3	82.6	.	102.4	2.4	i	0.98
Cc1ccc(NC(=O)Nc2cccs2)nc1	40.6	126.4	-1.1	95.8	-5.5	i	0.66
NC(=O)Cc1cn(-c2ncc(C(F)(F)F)cc2Cl)c2ccccc12	.	.	0.6	95.5	8.8	i	0.85
CN(C1CCCCC1)S(=O)(=O)c1ccc(NC(=O)c2ccc(Br)o2)cc1	-23.7	150.3	1.5	36.5	-2.9	i	0.84
Nc1nc(SCC(=O)Nc2c(Br)cc([N+](=O)[O-])cc2Br)n[nH]1	46.1	93.6	-2.9	100.0	1.8	i	0.9
CCCCOC(=O)Oc1ccc2c(=O)c(Oc3cc(C)cc(C)c3)coc2c1	.	.	-1.0	107.0	-3.5	i	0.98
Cc1ccc(CSCC(=O)NCc2ccc(F)cc2)cc1	5.6	87.9	.	97.5	-4.9	i	1.03
COc1cc(C2NC(=O)C(C#N)=C(S)N2c2ccc(C)cc2)ccc1OC(C)C (configuration not stated)	21.4	78.9	90.8*	101.2	-7.1	i	0.92
COc1ccc(/C=N/Nc2nnc(Cc3ccc(OC)c(OC)c3)c(=O)[nH]2)cc1OC	44.8	78.8	-0.8	97.3	0.7	i	1.06
C/C(=N\Nc1ccc2nncn2n1)c1ccco1	.	.	.	99.9	.	i	0.99
CCOC(=O)Nc1ccc2c(c1)N(C(=O)CCN1CCOCC1)c1ccccc1S2=O (configuration not stated)	-50.0	87.6	-1.8	102.1	-10.2	i	0.74
Nc1nc(NC(=O)c2ccco2)nn1-c1ccccc1	21.7	84.1	-0.6	92.6	-2.8	i	0.92
O=C(CSc1nccn1-c1ccc(Cl)cc1)N1CCCc2ccccc21	.	.	0.4	100.5	-3.8	i	0.91
Cc1ccc(S(=O)(=O)N(C)c2ccc(OCC(=O)Nc3nnc(C4CC4)s3)cc2)cc1	.	.	.	96.0	0.2	i	0.89
O=C1CCC(/C=C/c2ccccc2)=NN1	-15.4	55.1	.	102.7	1.5	i	1.02

Compounds above that contain a nitro group on carbon (three):
SMILES	Insulin prom inh	Insulin prom inh cell count	GALR2 ag	RGS16-Gao HTS	PKD1 inh	HSV replic up	HSV replic up primary fold
CN(C)CCCNC(=O)/C(=C\c1ccc(-c2cccc([N+](=O)[O-])c2)o1)NC(=O)c1ccccc1	.	.	.	108.8	1.0	i	0.8
O=[N+]([O-])c1cccc(-c2ccc(/C=N/NC(=S)Nc3ccccc3)o2)c1	.	.	-3.4	102.1	0.8	?	.
Nc1nc(SCC(=O)Nc2c(Br)cc([N+](=O)[O-])cc2Br)n[nH]1	46.1	93.6	-2.9	100.0	1.8	i	0.9

The results go on.
SMILES	Insulin prom inh	Insulin prom inh cell count	GALR2 ag	RGS16-Gao HTS	PKD1 inh	HSV replic up	HSV replic up primary fold
CCN(CC(=O)c1c(N)n(C)c(=O)n(C)c1=O)c1cccc2ccccc12	.	.	-1.1	100.5	-7.2	i	1.04
COCCN=c1scc(-c2cccs2)n1/N=C(\C)c1ccco1	-50.0	120.0	.	102.2	3.9	i	0.95
CCCCCOC(=O)CSc1nnc(-c2ccccc2)c(=O)[nH]1	27.3	184.2	-0.7	100.7	-19.3	i	0.99
N#Cc1c(N)nc(Sc2ccc(Cl)cc2)c(C#N)c1-c1ccccc1Cl	.	.	.	105.8	.	i	0.73
O=C(NCCc1ccccn1)c1cc(-c2ccc(Cl)c(Cl)c2Cl)nc2ccccc12	.	.	-0.2	100.8	1.0	i	0.99
CC(C)OC(=O)c1ccc(NC(=O)c2cncc(Br)c2)cc1	0.0	101.6	.	97.8	-5.3	i	0.84
CN(CCC1CCOCC1)C(=O)CC1C(=O)NCCN1CC1CCCCC1 (configuration not stated)	.	.	.	103.9	-0.6	i	1.02
CCOP(=O)(OCC)C(Nc1ccc(C)cc1)c1ccco1 (configuration not stated)	14.3	101.2	.	102.7	-0.5	i	0.94
CCOC(=O)C1CN(S(=O)(=O)c2ccccc2)CCN1S(=O)(=O)c1ccccc1 (configuration not stated)	3.9	98.6	0.8	102.2	-3.4	i	1.13
Cc1ccc(S(C)(=O)=O)cc1S(=O)(=O)Nc1cccc(Cl)c1	-7.7	166.1	-1.5	119.2	-2.7	i	1.03
O=C(CN1C(=O)COc2ccccc21)N1CCCc2ccccc21	.	.	-2.9	70.9	-17.6	i	1.03
Cc1ccc2[nH]c(=O)c(CN(CC3COCCO3)C(=O)Nc3ccccc3F)cc2c1 (configuration not stated)	-20.0	123.3	.	98.5	4.3	i	0.8
COc1ccc(C2Nc3ccccc3C(=O)N2C2CCCCC2)cc1 (configuration not stated)	11.1	76.7	.	114.6	4.0	i	1.12
O=C(NNC(=S)NC(=O)c1ccccc1[N+](=O)[O-])c1ccccc1O	0.0	75.1	.	100.4	-3.3	i	0.96
O=C(c1cc2ncc(Br)cn2n1)N1CCN(C(=O)c2ccco2)CC1	27.2	70.0	-1.7	107.0	-2.2	i	0.92
CCCCCCCCn1c(=O)c(C(=O)OC)c(N)c2ccccc21	.	.	.	71.7	.	i	0.86
CC1CCN(C(=S)SCc2nc(N)nc(Nc3ccccc3)n2)CC1	.	.	.	104.4	.	i	0.84
CC(Oc1ccc(Cl)cc1Cl)C(=O)N/N=C1\CCCc2ccccc21 (configuration not stated)	23.3	104.3	-0.8	92.1	-4.1	i	0.96
CC(=O)Nc1ccc(NC(=O)C(C)OC(=O)CN(C)S(=O)(=O)c2ccc(Cl)cc2)cc1 (configuration not stated)	-15.9	88.7	-0.2	109.8	-6.3	i	1.04
Cn1nc(-c2ccccc2)cc1NC(=O)C1CCCCC1	.	.	.	94.8	.	i	0.89

A different layout for two compounds above:
| mol | Insulin prom inh | Insulin prom inh cell count | GALR2 ag | RGS16-Gao HTS | PKD1 inh | HSV replic up | HSV replic up primary fold |
| --- | --- | --- | --- | --- | --- | --- | --- |
| CCCCCCCCn1c(=O)c(C(=O)OC)c(N)c2ccccc21 | . | . | . | 71.7 | . | i | 0.86 |
| O=C(NNC(=S)NC(=O)c1ccccc1[N+](=O)[O-])c1ccccc1O | 0.0 | 75.1 | . | 100.4 | -3.3 | i | 0.96 |

Next section.
SMILES	Insulin prom inh	Insulin prom inh cell count	GALR2 ag	RGS16-Gao HTS	PKD1 inh	HSV replic up	HSV replic up primary fold
COC(=O)Nc1sc2nc(C)cc(C)c2c1-n1cccc1	3.7	74.8	-2.2	102.9	-3.2	i	0.93
Cc1c(Br)c([N+](=O)[O-])nn1CCCC(=O)Nc1sc2c(c1C#N)CCC2	-94.4	86.7	0.9	70.3	0.1	i	0.98
O=C(NCCc1c[nH]c2ccccc12)c1ccc(-n2cnnn2)cc1	13.9	143.4	-1.9	169.4	-4.2	i	0.86
COC(=O)C1=C(C)N=C2SC(C)C(=O)N2C1c1cccs1 (configuration not stated)	.	.	-2.1	95.8	-0.3	i	1.04
Cc1ccc(CN2CCN(/N=C/c3ccco3)CC2)c(C)c1	-400.0	58.1	-2.3	102.9	-3.9	i	0.88
C/C(=N/NC(=O)CNC(=O)C1COc2ccccc2O1)c1cccc(O)c1 (configuration not stated)	0.0	108.1	.	112.8	1.8	.	.
Cc1cc(SCC(=O)c2cc(C)n(C)c2C)nc2ccccc12	0.0	136.2	-0.7	101.4	-0.9	i	1.11
OCCC1CN(Cc2ccccc2-c2ccco2)CCN1Cc1ccsc1 (configuration not stated)	.	.	.	99.7	2.8	i	0.97
c1c(C2CCCCC2)n[nH]c1CN1CCCCC1	.	.	-0.1	104.2	-0.8	i	0.93
O=S(=O)(NCCc1ccccc1)c1ccccc1	-37.5	88.1	-2.3	65.0	-4.7	i	0.82
O=C(Nc1c(F)cc(F)cc1Br)C1CCCO1 (configuration not stated)	-7.0	122.7	-1.7	151.6	-5.2	i	0.96
COc1ccccc1NS(=O)(=O)c1ccc(Cl)c(NC(=S)NC(=O)C2CCCC2)c1	-46.1	53.4	-1.3	108.7	-0.1	i	0.86
COCCNC(=O)CCc1c(C)nc2nc(-c3cc(OC)cc(OC)c3)nn2c1C	-23.5	63.2	.	101.1	-4.6	i	0.81
CCC(=O)N1c2ccccc2NC2=C(C(=O)CCC2)C1c1cccnc1 (configuration not stated)	0.0	67.2	-1.2	109.0	8.8	i	0.85
CSc1nc(NC(C)(C)C)nc(N2CCOCC2)n1	38.5	100.0	0.6	104.3	1.0	i	0.73
Nc1nnc(-c2cn(-c3ccccc3)nc2-c2ccccc2)o1	-57.3	97.1	0.7	104.1	6.6	i	0.9
Cn1c(N2CCCCC2)cc(=O)n(C)c1=O	30.2	58.3	-2.8	102.3	-4.0	i	1.1
CC(=O)c1cccc(NC(=O)COC(=O)COc2ccccc2C)c1	25.0	119.5	.	105.5	-3.3	i	0.98
CC1=C(C(=O)OCC2CCCO2)C(c2ccc(C)o2)C2=C(CC(c3ccc(F)cc3)CC2=O)N1 (configuration not stated)	34.9	86.0	-2.3	96.7	-8.3	i	1.01
Cc1nccn1S(=O)(=O)c1ccc(Br)cc1Br	.	.	-0.3	126.7	4.4	i	1.11
COc1ccc(-c2[nH]nc3c2C(c2ccncc2)C(C#N)=C(N)O3)cc1 (configuration not stated)	-7.7	57.8	1.2	107.2	2.4	i	0.97
Oc1ccc2ccccc2c1C1Nc2cccc3cccc(c23)N1	8.6	114.0	-2.9	93.5	3.9	i	1.17
c1ccc(C2=NN(c3ccccc3)CC2)cc1	.	.	.	106.6	.	i	1
